Source: PubChem BioAssay
Vaccinia Venus – vaccinia inhibition (Venus reporter). AID 720580. Vaccinia virus Venus reporter expression, fluorescence. 330,000 compounds, 0.46% hits. Potency, µM (highest dose often 36.5 µM), inactives show at the top dose activity change, negative = inhibition, usual class: inhibitors; active means well fitted inhibition curve with a large enough effect; inconclusive means small, poorly fitted or top-dose-only effect; inactive means no such curve, though single readings can be large or run the other way; tested in A549 cells; note: nearly all actives have a fitted effect of over 30% in size; inactives centre near -10
VACV mCherry inh – inhibitors of vaccinia virus infection (mCherry reporter signal) | Potency, µM (highest dose often 36.5 µM), for the others: top-dose activity change, negative = inhibition, most hits filed as inhibitors | 310,000 compounds, 0.63% hits | AID 720579 | Vaccinia virus mCherry reporter infection, fluorescence; about a quarter of the inactives have no number; active = well fitted inhibition curve with a large enough effect; inconclusive = small, poorly fitted or top-dose-only effect; inactive = no such curve, though single readings can be large or run the other way; tested in A549 cells; note: nearly all actives have a fitted effect of over 35% in size; inactives centre near -10
Starred values were filed as active, the others as inactive; i = inactive; u = inconclusive; x = no result given; & = joins results of further samples; [ ] = remark or other dose. % is set by controls: 0 for no effect and ±100 for the full control effect; potency is the fitted concentration of half-maximal effect.

Results follow in this order: Vaccinia Venus	VACV mCherry inh
Cc1ccn2c(=O)cc(COc3ccc(NC(=O)C(C)(C)C)cc3)nc2c1
→ -9%	-18%
CC(C)[C@H](NC(=O)C1CCN(S(=O)(=O)c2ccc(F)cc2)CC1)C(=O)NCc1ccncc1
→ -6%	-2%
O=c1cc(-c2ccccc2)nc(/C=C/c2ccccc2)[nH]1
→ -1%	-16%
CCc1nc(NCc2ccccn2)c2oc3ccccc3c2n1
→ u	x
CN1CCN(c2nc(N)c(Br)c(Cl)n2)CC1
→ -6%	-3%
C=C1C(=O)O[C@H]2C1CC[C@@](C)(O)C13C=CC(C)(C21)C1(C3)C(=O)O[C@@H]2C3C(C)=CCC3[C@](C)(O)C[C@H](OC(C)=O)C21 (stereo partly drawn)
→ -19%	-19%
C=CCc1ccccc1OCCNCCCOC
→ -12%	i
CS(=O)(=O)c1ccc(C2=C(CNC(=O)c3cccs3)[C@H]3CC[C@@H](C2)N3Cc2ccco2)cc1
→ -28%	-13%
O=S(=O)(c1ccc2nc(-c3ccccc3)[nH]c2c1)N1CCN(c2ccc(Cl)cc2)CC1
→ -29%	-8%
CCN(Cc1ccccc1)Cc1c(O)ccc2c(=O)c(-c3ccc(Cl)cc3Cl)coc12
→ -6%	-3%
Cc1ccc(-c2nc3ncccn3c2NC2CCCCC2)o1
→ -10%	-11%
CC1CCN(C(=O)CSc2nc3cccnc3n2C)CC1
→ -11%	-15%
CCOCCCNC(=O)Cn1nc(Cc2ccncc2)c2ccccc2c1=O
→ -11%	-3%
COc1ccc(OC)c(NC(=O)CCN2CCCCCC2)c1
→ -11%	-12%
CCNC(=O)N1c2ccccc2Sc2ccccc21
→ u	-3%
COC(=O)C(C)(C)c1cccnc1C#N
→ -4%	-10%
COc1cccc(CNC(=O)c2ccc(CS(=O)(=O)Cc3ccccc3C)o2)c1
→ -20%	-12%
CC(=O)N(Cc1ccccc1)Cc1cn(CCC#N)nc1-c1cccc([N+](=O)[O-])c1
→ -5%	i
CCCN(C(=O)c1cc2c(=O)oc3ccccc3c2s1)c1ccccc1C
→ -7%	-7%
Cc1ccc(OCC(=O)c2cc(C)n(Cc3cccs3)c2C)c([N+](=O)[O-])n1
→ u	u
Cc1cc(N2CC(C(=O)NCc3cccs3)CC2=O)ccc1C(C)C (stereo not drawn)
→ -17%	-3%
O=C(CCCCCn1c(=O)[nH]c2ccccc2c1=O)N1CCN(c2cccc(C(F)(F)F)c2)CC1
→ -17%	-17%
COc1c2ccoc2nc2c(OC)c(OCC(O)C(C)(C)O)ccc12 (stereo not drawn)
→ -8%&-5%	-14%
O=C(Nc1ccccc1)N1Cc2ccccc2-n2nncc2C1
→ 6%	16%
COc1ccc(C(C(=O)NC2CCCC2)N(C(=O)Cc2cccs2)C2CC2)cc1OC (stereo not drawn)
→ 1%	-18%
C=CCN1C(=O)C(=Cc2ccc3c(c2)CCC3)SC1=S
→ -5%	-2%
CCCc1nc2ccc(NC(=O)c3ccco3)cc2c(=O)n1Cc1ccccc1Cl
→ -24%	u
CCOC(=O)CNC(=O)c1cnc(Nc2ccccc2OC)c2ccccc12
→ -3%	i
COc1cccc(N(C(=O)c2snc(C(N)=O)c2N)C(C(=O)NCC2CCCO2)c2c[nH]c3ccccc23)c1 (stereo not drawn)
→ -12%	u
Cn1c(Cn2cnc([N+](=O)[O-])n2)nnc1SCC(=O)Nc1ccc(Br)cc1
→ 1%	3%
CCNc1nc(Oc2ccc(F)cc2)cc(C(F)(F)F)n1
→ 2%	10%
C=CCn1c(O)c(C(C)=Nc2ccc3c(c2)CCC3)c(=O)[nH]c1=O
→ -11%	i
COC(=O)c1c(Cl)c2n3ccccc3c(C)c(-c3ccccc3)c-2c1C(=O)OC
→ 41%[activator]	i
O=C(CN(Cc1cccs1)C(=O)c1csnn1)NC1CCCC1
→ -17%	-4%
CCOc1ccc(NC(=O)C(=O)NCC2CCCN2CC)cc1 (stereo not drawn)
→ -9%	-18%
CC(C)CNc1ncnc2c1ncn2[C@H]1CN(CCN2CCOCC2)C[C@@H](CO)O1
→ u	-4%
CC(C)CN(C(=O)Cn1nnc(-c2ccc(Cl)cc2)n1)C1CCS(=O)(=O)C1 (stereo not drawn)
→ -15%	i
Cc1ccc(C(=O)NCC(=O)OCc2nc3ccsc3c(=O)[nH]2)cc1C
→ -10%	i
O=C(Nc1ccncc1)Nc1ccc(F)cc1
→ -14%	i
O=C1NC(=O)N(c2ccc(F)cc2)C(=O)/C1=C/c1ccsc1
→ 30%	-13%
CC(=O)N1CCc2cc(S(=O)(=O)NCCCN3CCN(Cc4ccccc4)CC3)ccc21
→ u	u
CN(C)C(=S)NCc1ccccc1
→ 7%	-10%
O=C(CN1C(=O)c2ccccc2S1(=O)=O)NC1CC2CCC1C2 (stereo not drawn)
→ 1%	13%
Cc1ccc(-c2nnc(Nc3ccccc3)o2)cc1
→ -14%	i
C=CCSC(=S)NC1CCS(=O)(=O)C1 (stereo not drawn)
→ -17%	-25%
NC(=O)CSc1nnc(-c2cc(-c3ccc(Cl)cc3)nc3ccccc23)o1
→ 3%	5%
Cc1cc(Nc2ccc(C)c(C)c2)n2nc(C)nc2n1
→ -4%	-14%
CCCc1nnc(NC(=O)CN2CCN(C)CC2)s1
→ -10%	i
CCCCn1c(NCc2ccncc2)nc2ccccc21
→ -8%	i
Cc1cc(C)cc(C(=O)NN2CCOCC2)c1
→ -20%	-5%
CC(C)C[C@H]1CNC(=S)N1C[C@H]1CCCN1C[C@H](Cc1ccccc1)N1C[C@H](Cc2ccc(O)cc2)N(CC2CCCCC2)C1=S
→ -21%	-10%
CC(c1ccco1)N(C(=O)Nc1ccc(Cl)cc1)c1ccccn1 (stereo not drawn)
→ -18%	x
COc1ccc(NS(=O)(=O)c2cc(NC(=O)C3=NN(c4ccccc4)C(=O)CC3)ccc2C)cc1
→ -22%	-26%
OCC[C@@H]1C[C@H](O)[C@@H](O)[C@@]2(CCCCO2)O1
→ 0%	-13%
O=C(Cc1cccc(NC(=O)C2CCCN(C(=O)C3CCC3)C2)c1)Nc1ccc(C(=O)N2CCCCC2)cc1 (stereo not drawn)
→ -5%	i
O=C(Cn1nnc(-c2ccccc2)n1)NCc1cccs1
→ -3%	-13%
CCOc1ccc(N2C(=O)CC(N3CCN(C(=O)c4ccco4)CC3)C2=O)cc1 (stereo not drawn)
→ 7%	-4%
C#CCOCCOCCOCCNc1nc(N2CCN(C(=O)Cn3cc(CC(C)O)nn3)CC2)nc(N2CCN(C(=O)[C@H](C)n3cc(CCC(=O)O)nn3)CC2)n1 (stereo partly drawn)
→ 5%	-12%
Oc1ccc(N2CCN(C(c3cccnc3)c3nnnn3Cc3ccccc3)CC2)cc1 (stereo not drawn)
→ -11%	-9%
COC(=O)c1cccc(NC(=O)CCNC(=O)c2ccc([N+](=O)[O-])cc2)c1
→ -10%	-12%

(list continues)
Results follow in this order: Vaccinia Venus	VACV mCherry inh
COc1ccc(C(=O)CSc2nc3ccccc3n2CC(=O)c2ccccc2)cc1
→ -18%	-20%
CCOC(=O)C1=C(C)NC(=O)NC1c1ccc(OC)c(CN2CCOCC2)c1 (stereo not drawn)
→ -26%	x
Clc1nc(NCc2ccco2)c2[nH]cnc2n1
→ -18%	-8%
CC(C(=O)Nc1ccc(OCc2ccccc2)cc1)N1CCCC1 (stereo not drawn)
→ -18%	i
C=C[C@]1(C)C=C2CCC3[C@](C)(CCC[C@@]3(C)C(=O)O)C2CC1 (stereo partly drawn)
→ -8%	-1%
CCn1c(=O)c([N+](=O)[O-])c(NC2CCS(=O)(=O)C2)c2ccccc21 (stereo not drawn)
→ 2%	-3%
Cc1ccccc1N1CCN(c2ccc(NC(=O)C3CCCCC3C(=O)O)cc2)CC1 (stereo not drawn)
→ -10%	-24%
COc1ccc(-c2cc(C(F)(F)F)n3nc(C(=O)N4CCN(C(=O)c5ccco5)CC4)cc3n2)cc1
→ -15%	-14%
C#CCN1C(=O)S/C(=C\c2ccc(-c3ccc(C(=O)O)cc3C)o2)C1=O
→ 0%	-11%
CCOc1cc(/C=C2\C(=O)N(Cc3ccc(C)cc3)C(C)=C2C(=O)OC)ccc1O
→ -19%	x
Cc1ccc(-c2noc(CCC(=O)NCc3ccco3)n2)cc1
→ -9%	-18%
CCc1ccccc1NC(=O)[C@H](Cc1ccccc1)N1Cc2ccccc2C1=O
→ 1%	-12%
Clc1cc(Cl)cc(NC2=NCCS2)c1
→ -8%[7.34 µM]	i[7.34 µM]
Cc1cccc(NC(=O)Nc2ccc3c(c2)N(C)C(=O)CS3)n1
→ -19%	u
O=C(O)COc1ccc2c(c1)O/C(=C\c1cccs1)C2=O
→ -4%	-6%
Cc1ccc(S(=O)(=O)N(C)C[C@@H]2Oc3ccc(NC(=O)Cn4cnnn4)cc3C(=O)N([C@@H](C)CO)C[C@H]2C)cc1
→ -5%	i
CCc1ccc(C(=O)COC(=O)C(Cc2ccccc2)NC(=O)c2ccc(Cl)cc2)cc1 (stereo not drawn)
→ -9%	i
Cc1[nH]n(-c2ccc([N+](=O)[O-])cc2)c(=O)c1C=NCC1CCCO1 (stereo not drawn)
→ -2%	i
CO[C@H]1O[C@H](C)[C@@H](O)C[C@H]1NC(=O)OCc1ccccc1
→ -9%	i
CC(C)=C1C2C=CC1C1C(=O)N(c3ccc4c(c3)OCO4)C(=O)C21 (stereo not drawn)
→ -12%	-5%
Cc1ccc2c(C)c(C(=O)N3CCN(c4cnccn4)CC3)oc2c1C
→ u	-27%
O=C(CSc1ccc2nnc(-c3ccc(Cl)cc3)n2n1)N1CCc2ccccc21
→ u	-12%
NS(=O)(=O)c1ccc(NC(=O)C(=O)Nc2ccc3nc4n(c(=O)c3c2)CCCCC4)cc1
→ -5%	1%
C=C(C)C(=O)Nc1ccc2c(c1)OCCOCCOCCO2
→ -17%	i
O=C(CSc1nc2ccccc2c(=O)n1Cc1ccc(F)cc1)NCc1cccs1
→ -9%	-3%
Cc1ccc(S(=O)(=O)N[C@H](C(=O)N2CCC(C(=O)N[C@H](C(=O)O)c3ccccc3)CC2)C(C)C)cc1
→ 0%	-9%
CC(C)OC(=O)CSc1nnc(-c2ccc(Cl)cc2Cl)o1
→ -10%	x
CCCCCn1c(SCCc2ccccc2)nc2c1c(=O)[nH]c(=O)n2C
→ -19%	x
O=C(COC(=O)c1c(Cl)cccc1Cl)NCc1cccs1
→ -11%	0%
O=C(N/N=C/c1ccccc1)c1ccc(NC(=O)c2ccc(F)cc2)cc1
→ -6%	-2%
COC(=O)C(CC(=O)c1ccc(Cl)cc1)c1ccccc1 (stereo not drawn)
→ -16%	-23%
CCOc1cc(C2NC(=O)NC(c3ccccc3)=C2C(C)=O)ccc1OCC(N)=O (stereo not drawn)
→ -4%	x
COc1ccc(Br)cc1CNC(=O)c1cnc2sc(N3CCC(C)CC3)nn2c1=O
→ -29%	-29%
Cc1ccc2nc3c(cc(C(=O)NC4CCCC4)c(=N)n3C(C)C)c(=O)n2c1
→ -10%	-12%
CC(=O)c1sc(Nc2nc3ccc(F)cc3s2)nc1C
→ u	u
O=[N+]([O-])c1ccc(OCc2cn([C@@H](CO)c3ccccc3)nn2)c(Br)c1
→ -29%	u
CCCN(C)C1CN(Cc2cn(Cc3ccc(F)cc3)nn2)S(=O)(=O)C1 (stereo not drawn)
→ 7%	46%[activator]
COc1ccc(S(=O)(=O)N2CCOCC2)cc1NC(=O)CO/N=C/c1ccccc1OC(F)F
→ -14%	i
COC1c2ccccc2C(=O)N1Cc1ccc(F)cc1 (stereo not drawn)
→ -8%	-14%
CN(C)C=NC(=O)c1cc(C(=O)c2ccc(C(C)(C)C)cc2)c[nH]1
→ -2%	i
CC(=O)N1CCN(C(=O)c2cccc(NS(=O)(=O)c3ccc(Br)cc3)c2)CC1
→ -3%	-14%
Cc1ccc(-c2nc3c4cnn(-c5cc(Cl)ccc5Cl)c4ncn3n2)cc1
→ -10%	-12%
